Screens deposited in PubChem by several laboratories.
Calb FLC: affects C. albicans growth with fluconazole. C. albicans CaCi-2 (fluconazole-resistant clinical isolate) + fluconazole, Alamar Blue growth, 48 h. growth inhibition, % (test concentration not listed). actives 0.57% (n = 300,000);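 active = most replicates above 75%; inconclusive = exactly half above 75%; inactive = most below 75%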;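 note: all wells also contain fluconazole at 8 µg/ml as a sub-toxic cotreatment; 0% = median of DMSO wells and 100% = median of geldanamycin control wells; wells of about 8 µL received 7.5 nL stock; the first replicate is given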
LANA-H2B inh: blocks KSHV LANA binding to histone H2A/H2B | cell-free LANA-H2A/H2B peptide, fluorescence polarization | Q9QR71 | actives 0.6% (n = 320,000) | inhibition, % (no concentration beside the values) | AID 2629; in the data active = inhibition mostly above about 10%, no sharp cut-off; inactive = mostly below about 6.7%;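 note: stock transfer was 7.5 nL into about 10 µL; 0% = median of vehicle wells and 100% = median of positive control wells; one replicate is shown; the record names a cut of 25% in any replicate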
Target sequence (Q9QR71 whole entry, looked up): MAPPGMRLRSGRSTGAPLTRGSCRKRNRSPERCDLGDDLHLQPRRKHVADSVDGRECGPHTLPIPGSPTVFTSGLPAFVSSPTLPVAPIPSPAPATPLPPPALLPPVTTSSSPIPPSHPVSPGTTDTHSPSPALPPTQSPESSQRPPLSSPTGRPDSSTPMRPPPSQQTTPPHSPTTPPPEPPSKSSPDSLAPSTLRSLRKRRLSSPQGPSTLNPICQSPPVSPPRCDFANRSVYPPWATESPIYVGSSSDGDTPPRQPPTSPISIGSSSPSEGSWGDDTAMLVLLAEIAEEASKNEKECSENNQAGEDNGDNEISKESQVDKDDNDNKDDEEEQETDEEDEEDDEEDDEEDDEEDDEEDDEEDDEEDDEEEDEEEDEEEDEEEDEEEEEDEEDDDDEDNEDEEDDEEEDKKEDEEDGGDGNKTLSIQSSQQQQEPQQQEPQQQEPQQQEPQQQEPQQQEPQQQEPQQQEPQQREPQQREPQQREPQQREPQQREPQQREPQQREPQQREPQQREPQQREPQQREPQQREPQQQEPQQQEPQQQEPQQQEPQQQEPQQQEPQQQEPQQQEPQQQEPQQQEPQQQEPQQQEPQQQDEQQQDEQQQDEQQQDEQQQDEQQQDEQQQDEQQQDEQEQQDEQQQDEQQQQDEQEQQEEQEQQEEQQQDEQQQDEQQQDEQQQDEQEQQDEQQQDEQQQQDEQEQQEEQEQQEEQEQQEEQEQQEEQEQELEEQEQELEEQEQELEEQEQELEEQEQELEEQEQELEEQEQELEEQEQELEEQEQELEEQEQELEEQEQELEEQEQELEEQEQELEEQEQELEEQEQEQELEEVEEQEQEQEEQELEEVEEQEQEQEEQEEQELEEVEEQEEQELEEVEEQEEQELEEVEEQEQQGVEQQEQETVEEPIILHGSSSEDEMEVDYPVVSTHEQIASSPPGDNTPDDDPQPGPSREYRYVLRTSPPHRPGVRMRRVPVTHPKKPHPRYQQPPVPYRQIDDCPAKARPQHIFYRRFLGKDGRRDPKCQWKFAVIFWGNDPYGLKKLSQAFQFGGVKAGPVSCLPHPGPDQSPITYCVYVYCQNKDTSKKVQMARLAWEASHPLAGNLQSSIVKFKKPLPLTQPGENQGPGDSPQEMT
Beta cell apopt: beta cell apoptosis inhibition. AID 435005. actives 0.8% (n = 300,000). INS-1E cytokine-induced death, ATP luminescence, 48 h; percent of positive-control rescue, neutral wells zero. protection from apoptosis, % (test concentration not listed);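 active = all replicates at 75% or more, or half of them and the mean; inconclusive = half reach 75% but not the mean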;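 note: 0% = cytokine-treated negative control wells and 100% = positive control rescue; higher means more ATP so stronger rescue from cytokine killing; wells of about 40 µL received 100 nL stock; the first replicate is given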
AF4-AF9 inh: MLL-AF4/AF9 protein interaction inhibition. inhibition, % at 10 µM. actives 0.47% (n = 350,000). AID 651704. P42568. AlphaScreen, biotin-AF4 peptide binding to FLAG-AF9;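 active = every replicate reaching a set inhibition limit, whatever the replicate mean, cut at about 25% in these data; inconclusive = mean inhibition reaches that limit but some replicates miss it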;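 note: 0% = plate neutral control median and 100% = total signal loss; the record names both 10 and 1 µM as test concentration; the first replicate is given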
T cruzi inh: blocks replication of Trypanosoma cruzi; T. cruzi beta-gal in NIH3T3, luminescence, 90 h; inhibition, % (test concentration not listed); actives 1.4% (n = 300,000);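 active = mean inhibition across valid replicates above about 55%, limit read from the data; inconclusive = mean below that limit but half or more replicates reach it; inactive = mean below it, under half of replicates reach it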;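 note: signal also drops with host cell toxicity which is not excluded here; 0% = plate median of DMSO wells and 100% = zero luminescence signal; higher percent means less beta-gal luminescence so fewer parasites; stock transfer was 50 nL into about 50 µL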
A1 inh: inhibitors of the anti-apoptotic protein A1, read as caspase activation; MEF A1-2A-BIM cells, Caspase-Glo 3/7 luminescence, 3 h; percent of clofoctol response, vehicle zero; caspase activation, % (no concentration beside the values); actives 0.066% (n = 330,000);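 active = over half of replicate activation scores above 10%, or exactly half above 10 with the replicate mean above 10; inconclusive = replicate mean below 10 yet half the replicates above 10; inactive = over half of replicates below 10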;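 note: wells of about 30 µL received 50 nL stock; many hits fall short of the cut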
Vif TR-FRET: inhibitors of Vif binding to APOBEC3G peptide, primary screen, biochemical, TR-FRET, GST-Vif 1-94, biotin-A3G peptide, dose response retest (AID 1117319) | actives 0.57% (n = 260,000) | inhibition, %; hits with a dose series show IC50 in µM | TR-FRET GST-Vif / biotin-A3G peptide binding; higher % means a stronger effect; test concentration not given here; strong numbers were not always called active;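 active = above the screen mean plus three standard deviations and confirmed in dose response; inconclusive = results disagree or hit not tested in dose response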;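 note: Vif residues 1-94 fused to GST binding biotinylated APOBEC3G peptide 110-148; 0% = full assay without inhibitor and 100% = GST in place of GST-Vif; retest series ran down from 100 µM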
RanGTP-Imp inh: disruptors of Ran-importin-beta complex formation – biochemical, FRET, CFP-Ran, YFP-importin-beta, homogeneous, primary screen; inhibition, % (no concentration beside the values); AID 2216; actives 1.1% (n = 300,000); cell-free CFP-Ran/YFP-importin-beta FRET ratio;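 active = most replicates above 15%; inconclusive = exactly half above 15%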;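 note: 0% = DMSO wells and 100% = Ran loaded with GDP instead of GTP; wells of about 40 µL received 100 nL stock; the first replicate is given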
Starred values were filed as active, the others as inactive; u = inconclusive; x = not tested or not shown.

entry | mol | Vif TR-FRET | AF4-AF9 inh | Calb FLC | T cruzi inh | LANA-H2B inh | Beta cell apopt | RanGTP-Imp inh | A1 inh
1 | CCn1c(Cc2cccs2)nnc1SCC(=O)NC(C)(C)C | 1% | -2.7 | -19 | -9 | 2.5 | -11 | 3.8 | 0.7
2 | CCN(CC)S(=O)(=O)c1ccc(OC)c(NC(=O)CSCc2c(C)noc2C)c1 | -10% | 1.8 | x | x | -6.6 | -2 | x | -1.2
3 | CCOC(=O)c1ccc(-n2nc(C)cc2C)cc1 | 0% | -0.1 | -2 | -9 | -2.9 | 3 | -1.3 | -6.5
4 | O=C(NCc1ccncc1)c1ccc(Oc2ccccc2)cc1 | 3% | 0.9 | 0 | 5 | x | 3 | 3.5 | 1.3
5 | COc1cc(/C=C(/C#N)C(=O)Nc2ccccc2)ccc1OCc1ccc(C(=O)O)cc1 | 21% | -7.4 | 5 | -12 | 5.1 | 3 | x | -0.5
6 | CC(C)c1nc2cc(C(=O)N3CCNC(=O)C3c3ccc(F)cc3)ccc2o1 (stereo not drawn) | -5% | 0.2 | -4 | 0 | 2.2 | -6 | -1.8 | 1.8
7 | C#Cc1cccc(NC(=O)C2CCN(C(C)=O)CC2)c1 | 2% | -3.5 | u | -22 | -3.1 | -5 | 1.7 | 1.2
8 | COc1cccc(C(=O)NC(=S)Nc2ccc([N+](=O)[O-])cc2C)c1 | 5% | x | 20 | 16 | -6.3 | 1 | 2.4 | -0.6
9 | O=C(NCc1cccs1)C1CCN(c2nc3ccccc3o2)CC1 | 22% | x | -8 | 0 | 1.5 | -4 | 4.6 | 0.9
10 | CC(NC(=O)COc1ccc(S(=O)(=O)N2CCOCC2)cc1)c1ccccc1 (stereo not drawn) | -10% | -0.9 | x | x | -1.2 | -6 | x | 1.2
11 | COC1CCN(C(=O)c2ccc3oc(Cc4ccc(Cl)cc4)nc3c2)CC1 | x | -1.9 | 8 | -1 | -2.6 | -2 | 0.7 | 0.0
12 | CC(OC(=O)Cc1coc2ccc3ccccc3c12)C(=O)Nc1ncc(Cl)cc1Cl (stereo not drawn) | u | x | 25 | -3 | 4.5 | 0 | 1.0 | -0.4
13 | O=C(OCC(=O)N1CCOCC1)c1ccccc1OCc1ccc(Cl)cc1 | 2% | -0.2 | x | x | -4.0 | 5 | x | 0.2
14 | O=C(O)C1CCCCC1C(=O)Nc1cnn(Cc2ccccc2)c1 (stereo not drawn) | -1% | x | 23 | -14 | 1.9 | -5 | 1.9 | 1.1
15 | CCCN(CCC)c1c([N+](=O)[O-])c(=O)oc2ccccc12 | x | x | 3 | -13 | 2.6 | -3 | 0.7 | -1.0
16 | CC(=O)c1cccc2c(O)c(C3=Nc4ccccc4C3=O)[nH]c12 | 9% | 40* | -8 | -9 | -3.0 | 55 | -0.4 | 1.8
17 | Cc1cccc(OCCC(=O)Nc2ccc(C)c(S(=O)(=O)N3CCOCC3)c2)c1 | x | 2.3 | x | x | -6.1 | -1 | x | 0.8
18 | CN(Cc1nc(-c2cnccn2)no1)Cc1n[nH]c2c1CCCC2 | 5% | 0.0 | -2 | -18 | x | x | -2.7 | x
19 | CCOC(=O)N1CCN(c2c(NCCc3ccc(C)cc3)c(=O)c2=O)CC1 | -1% | -8.2 | 8 | -4 | -1.4 | x | -1.2 | 1.0
20 | CC(=O)N(CCS(=O)(=O)c1ccc(Cl)cc1)Cc1cccs1 | -3% | 2.5 | -28 | 6 | 0.0 | -4 | u | 0.4
21 | CN(Cc1ccccc1)C(=O)COc1ccc(C(C)(C)C)cc1 | 4% | -7.2 | 3 | 33 | -1.7 | x | 0.1 | 0.3
22 | O=C(Nc1cccc(S(=O)(=O)N2CCOCC2)c1)c1cnn2c(C(F)F)cc(-c3ccccc3)nc12 | 6% | -3.3 | -3 | 18 | -1.6 | 21 | 4.7 | 0.4
23 | Cc1oc2ccc(O)cc2c1C(=O)OC(C)C | 0% | x | 23 | 6 | 2.3 | x | -5.7 | -1.0
24 | COC(=O)c1sc(NC(=O)CSc2nnc(Cn3nnc4ccccc43)n2C)nc1C | 2% | -3.2 | 10 | -8 | 8.2 | 0 | 2.8 | -1.3
25 | Cc1ccc(C(=O)NCc2ccc3c(c2)OCO3)o1 | x | -5.2 | 7 | -5 | 2.9 | x | 2.9 | -0.3
26 | O=C(NCc1cn2ccsc2n1)Nc1cccc(Cl)c1 | 13% | x | 29 | -4 | 1.8 | -4 | -1.9 | -0.2
27 | COc1ccccc1CC(=O)Nc1ccc(-c2noc(COc3cccc(C)c3C)n2)cc1 | -3% | 6.6 | -4 | 39 | -4.7 | 10 | -2.5 | 0.3
28 | N#CC1=C(Nc2ccccc2)SC=C(c2ccc(F)cc2)N=C1N1CCOCC1 | -6% | x | -1 | x | 0.2 | -10 | 0.2 | 0.5
29 | CC(C)(Cl)C1Cc2cc3ccc(=O)oc3cc2O1 (stereo not drawn) | -3% | 8.5 | 2 | 14 | 8.6 | 1 | -1.2 | 0.4
30 | CCOc1ccc(S(=O)(=O)NCC2CCCO2)c2ccccc12 (stereo not drawn) | -9% | -3.5 | 19 | -2 | 4.8 | -1 | 0.6 | 0.1
31 | COc1ccc(C(NC(=O)c2cccc(F)c2)c2ccccc2)cc1 (stereo not drawn) | 1% | x | 2 | 10 | -1.3 | -26 | -1.2 | -0.9
32 | COc1ccccc1CCNC(=O)C(=O)NCC1OCCN1S(=O)(=O)c1ccc(F)cc1 (stereo not drawn) | x | -2.1 | 7 | -1 | -2.3 | 0 | 2.7 | 0.4
33 | CN(C(=O)CC(NC(=O)c1ccccc1)(c1ccccc1)c1ccccc1)c1ccccc1 | -5% | x | 92* | 6 | 2.6 | -20 | 1.6 | -0.2
34 | CSC(=S)N/N=C(\C)c1ccc(Br)cc1 | 26% | 6.7 | 8 | 40 | -4.7 | 4 | 7.0 | 0.2
35 | O=C(NCC(F)(F)F)c1ccc(S(=O)(=O)N2CCN(C(=O)C3CCCO3)CC2)cc1 (stereo not drawn) | -2% | 0.2 | x | x | 1.0 | -3 | x | 0.5
36 | FC(F)(F)c1nnc2c(Sc3ccccc3)nc3ccccc3n12 | -4% | x | u | 8 | 0.0 | -29 | 5.8 | -0.2
37 | CC(=O)OCCNc1cc(SCc2ccco2)c2nonc2c1[N+](=O)[O-] | u | x | -26 | -1 | 4.5 | -4 | 0.4 | 0.5
38 | Cc1nc(-c2ccccc2OC(F)(F)F)[nH]c(=O)c1Cl | 19% | -5.1 | 5 | -15 | 6.4 | -5 | -0.4 | 1.1
39 | O=C(NCc1ccccc1)c1cccc(NC(=O)c2ccco2)c1 | 22% | x | -5 | -45 | 0.7 | -5 | -2.8 | 0.6
40 | O=C(c1ccccc1)N(CCN1CCOCC1)C1(C(=O)Nc2ccccc2)CCCCC1 | 4% | x | 4 | 12 | 0.3 | -3 | 1.6 | 0.0
41 | Cc1noc(C)c1S(=O)(=O)N(C)C[C@H]1Oc2ccc(NC(=O)Cn3cnnn3)cc2C(=O)N([C@H](C)CO)C[C@@H]1C | x | 1.1 | x | x | -2.0 | -4 | x | 1.2
42 | COc1cc(NC(=O)C2=COCCO2)c(OC)cc1Cl | 10% | -1.4 | 20 | -3 | -4.5 | -3 | 4.2 | -0.5
43 | C=CCn1c(SCc2csc(C)n2)nc2sc3c(c2c1=O)CCCCC3 | 7% | x | 5 | 41 | -2.5 | 9 | u | -0.4
44 | COc1ccc(NC(=O)c2ccc(OC(F)F)cc2)cc1Cl | x | x | 24 | 3 | -0.4 | 2 | -1.2 | -6.9
45 | CC(=O)Nc1ccc(NC(=O)c2ccccc2N(C)S(C)(=O)=O)cc1 | 1% | x | 12 | -12 | -4.4 | 3 | u | 0.0
46 | COCC(=O)N/N=C/c1ccc(Sc2nc3ccccc3s2)o1 | 20% | x | 3 | -9 | -6.1 | -2 | 0.7 | -0.7
47 | COC(=O)c1cc(Br)c(=O)n(Cc2ccncc2)c1 | 24% | x | 7 | -31 | -3.4 | -7 | 5.5 | 0.5
48 | CCCc1cc(=O)oc2cc(OCC(=O)N3CCc4ccccc43)ccc12 | 5% | x | -2 | -10 | -3.3 | 3 | 1.2 | 0.2
49 | CC(C)NC(=O)C(=O)NCCN1CCN(S(=O)(=O)c2ccc(Cl)cc2)CC1 | 2% | x | -4 | -10 | -0.3 | -2 | 0.0 | 0.2
50 | CC(C(=O)N(C)c1ccccc1)N1CCN(C(=O)c2ccccc2)CC1 (stereo not drawn) | 2% | 0.6 | 5 | -10 | 4.5 | 4 | -1.3 | u

Retrieved by structure from above, 6 records:
entry | mol | Vif TR-FRET | AF4-AF9 inh | Calb FLC | T cruzi inh | LANA-H2B inh | Beta cell apopt | RanGTP-Imp inh | A1 inh
18 | CN(Cc1nc(-c2cnccn2)no1)Cc1n[nH]c2c1CCCC2 | 5% | 0.0 | -2 | -18 | x | x | -2.7 | x
19 | CCOC(=O)N1CCN(c2c(NCCc3ccc(C)cc3)c(=O)c2=O)CC1 | -1% | -8.2 | 8 | -4 | -1.4 | x | -1.2 | 1.0
1 | CCn1c(Cc2cccs2)nnc1SCC(=O)NC(C)(C)C | 1% | -2.7 | -19 | -9 | 2.5 | -11 | 3.8 | 0.7
40 | O=C(c1ccccc1)N(CCN1CCOCC1)C1(C(=O)Nc2ccccc2)CCCCC1 | 4% | x | 4 | 12 | 0.3 | -3 | 1.6 | 0.0
24 | COC(=O)c1sc(NC(=O)CSc2nnc(Cn3nnc4ccccc43)n2C)nc1C | 2% | -3.2 | 10 | -8 | 8.2 | 0 | 2.8 | -1.3
49 | CC(C)NC(=O)C(=O)NCCN1CCN(S(=O)(=O)c2ccc(Cl)cc2)CC1 | 2% | x | -4 | -10 | -0.3 | -2 | 0.0 | 0.2

Other compounds:
entry | mol | Vif TR-FRET | AF4-AF9 inh | Calb FLC | T cruzi inh | LANA-H2B inh | Beta cell apopt | RanGTP-Imp inh | A1 inh
51 | Cc1nn(C)c(C(=O)N2CCc3ccccc32)c1Cl | -1% | x | -13 | -15 | -2.4 | -4 | -2.7 | 0.1
52 | C=CCN([C@@H](CC(C)C)C(=O)OC)S(=O)(=O)N(CC=C)[C@@H](CC(C)C)C(=O)OC | x | -9.2 | x | x | -0.8 | 14 | x | 0.1
53 | Cc1cccc(C)c1-n1c(C)cc(/C=C2\NC(=O)NC2=O)c1C | -1% | x | 8 | 9 | -1.9 | 2 | -4.3 | 0.6
54 | CCOC(=O)c1sc(NC(=O)c2ccc(S(=O)(=O)N(C)C)cc2)cc1C | 12% | x | 5 | 65* | 8.8 | 12 | 1.6 | 0.4
55 | COc1ccccc1Oc1c(C)oc2c(CN3CCOCC3)c(O)ccc2c1=O | 2% | -1.9 | 3 | 8 | 2.5 | -2 | 2.1 | 0.0
56 | Cc1nc2ccc(NS(=O)(=O)c3ccc(Br)cc3)cc2s1 | -6% | -0.2 | x | x | -1.5 | 14 | x | -1.6
